HPGD inh – HPGD (human) dehydrogenase inhibition; P15428; purified HPGD, NADH fluorescence kinetic, PGE2 substrate; Potency, µM, for inactives: at the top dose activity change, negative = inhibition, most hits filed as inhibitors; 150,000 tested, 4.3% active; AID 894; active = well fitted inhibition curve with a large enough effect (not every such curve was filed as active); inconclusive = small, poorly fitted or top-dose-only effect, or another doubt; inactive = no such curve, though single readings can be large or run the other way;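 note: top concentration of the series not given in the record; plate controls included wells without enzyme; inactives centre near -10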
Target sequence (P15428 whole entry, looked up): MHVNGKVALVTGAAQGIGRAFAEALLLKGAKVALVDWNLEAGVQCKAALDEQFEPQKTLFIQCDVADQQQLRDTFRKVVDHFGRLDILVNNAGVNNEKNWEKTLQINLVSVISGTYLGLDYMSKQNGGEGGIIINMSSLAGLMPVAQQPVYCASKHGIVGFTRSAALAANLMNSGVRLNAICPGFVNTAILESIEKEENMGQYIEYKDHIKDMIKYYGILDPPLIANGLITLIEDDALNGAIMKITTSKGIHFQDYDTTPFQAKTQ
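NADH formation kinetics: reaction with 30 uM PGE2 and 1 mM NAD+ (final), 20 nM enzyme, Tris-HCl pH 8 with Tween 20, after 15 min compound preincubation at room temperature. Fluorescence change, last versus first of five reads.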
Starred values were filed as active, the others as inactive; ? = inconclusive; & = joins results of further samples. % is set by controls: 0 for no effect and ±100 for the full control effect; potency is the fitted concentration of half-maximal effect. This is a subset; the hit share may differ from the screen's.

Compound,HPGD inh
CCOC(=O)C1CCN(C(=O)CN(c2ccc(Cl)c(C(F)(F)F)c2)S(C)(=O)=O)CC1,-0.6%
CCCOc1ccc(C(=O)NCC(c2ccco2)N(C)C)cc1OC (stereo not drawn),-8.8%
COC(=O)c1ccccc1Oc1c(F)c(F)nc(N2CCOCC2)c1F,-20.8%
c1ccc(Cc2nnc(Sc3ccccc3)c3ccccc23)cc1,-11.9%
CCC(=O)N1CCN(c2ccccc2NC(=O)c2cccc(C)c2)CC1,2.2%
O=C(CN1CCN(Cc2ccc(Cl)cc2)CC1)N/N=C/C=C/c1ccccc1[N+](=O)[O-],-0.5%
COc1ccc(C(=O)Cc2nnc(C)s2)cc1,-15.3%
Cc1ccc(S(=O)(=O)N2CCN(C(=O)c3ccc(OCc4c(C)noc4C)cc3)CC2)cc1,4.7%
O=C(NCCc1ccccc1)c1ccccc1NS(=O)(=O)N1CCCC1,?
Cc1ccc2c(c1)NC(=O)C(CC(=O)N(C)Cc1ccccc1)O2 (stereo not drawn),-22.4%
CC(=O)NC1(c2cccc(F)c2)CCN(CC(=O)NC(C)C)CC1,-12.9%
CCCC[C@@H]1C[C@H]1[C@@H](NP(=O)(c1ccccc1)c1ccccc1)c1ccccc1OC,-12.8%
Cc1cc(/C=N/n2cnnc2)c(C)n1-c1ccccc1,-10.0%
CCOC(=O)c1cc(CC)sc1N,-8.7%
COc1ccc(NC(=O)N2CCCC2C(=O)Nc2ccc(C)c(Cl)c2)cc1 (stereo not drawn),-4.9%
O=c1[nH]c(=O)n(C2CCCO2)cc1F (stereo not drawn),-7.8%&-3.0%
O=C1OCCN1C(=O)[C@H]1[C@H](c2ccccc2)C(c2ccc(F)cc2)=NN1c1ccccc1,?
Cc1cc(C)nc(N2CCC(C(=O)Nc3ccc4c(c3)CCC4)CC2)n1,-7.9%
COc1cccc(CN2CCC(N(CCc3ccccc3)Cc3ccccc3)CC2)c1OC,-5.6%
Cn1cc(Cl)c(C(=O)OCC(=O)Nc2nc(-c3ccc(Br)cc3)cs2)n1,-8.4%
COc1ccc(OCC(=O)O/N=C(\N)Cc2ccc(Cl)cc2Cl)cc1,-12.4%
CCc1ccc(C(C(=O)NCc2ccc(OC)cc2)N(CCOC)C(=O)Cc2cccs2)cc1 (stereo not drawn),-6.6%
c1ccc2c(c1)OCC(c1csc3ncnc(N4CCCC4)c13)O2 (stereo not drawn),-8.2%
COc1cc(/C=C/C(=O)OCC(=O)NC2CCS(=O)(=O)C2)ccc1O (stereo not drawn),-19.9%
CC(/C=N/n1cnnc1)=C\c1ccccc1,-16.2%
O=C(CN1CCSC1=NCc1ccccc1)c1ccccc1,-0.4%
C[C@@H](C(=O)Nc1ccc2ccccc2c1)[C@@H]1C[C@@]1(C)[C@@H](NC(=O)OCc1ccccc1)c1ccccc1,-9.9%
C=C1C(CCl)(CCl)C2(Cl)C(Cl)C(Cl)C1(Cl)C2(Cl)Cl (stereo not drawn),-19.4%
CCCCN1C(=O)C(NC(=O)CC(C)C)(C(F)(F)F)C2=C1CC(C)(C)CC2=O (stereo not drawn),0.8%
O=C(NCc1ccccc1)c1cccnc1N1CCOCC1,-6.3%
O=C(NCCN1CCOCC1)c1cc2ccccc2o1,-11.9%
COc1ccc(N(CC(=O)Nc2ccc3c(c2)OCCO3)S(C)(=O)=O)c(OC)c1,3.8%
CN(C)c1ccc(/C=N/NC(=O)c2ccccc2Cl)cc1,-5.8%
CCCn1c(Sc2nc3c(c(=O)[nH]c(=O)n3C)n2CCC)nc2c1c(=O)[nH]c(=O)n2C,14.1µM*
O=S(=O)(c1ccc2ccccc2c1)N1C=CC(C(F)(F)F)=NCC1,-24.4%
C=CCNC(=O)NC(=O)COC(=O)/C(C#N)=C/c1cc(C)n(CC(C)C)c1C,2.6%
Cc1[nH]c2ccccc2c1C(=O)COC(=O)c1c(-c2ccccc2)noc1C,-16.0%
O=CNc1ncn[nH]1,-7.3%
Oc1[nH]c2ccccc2c1N=Nc1ccc(C(F)(F)F)cn1,-6.5%
O=P(O)(CP(=O)(c1ccccc1)c1ccccc1)c1ccccc1,-13.7%
Cc1c(C(=O)c2ccc(Cl)cc2[N+](=O)[O-])c2ccccn2c1CCC#N,?
COC(=O)c1cc(S(=O)(=O)n2nc(C)cc2C)c(Cl)cc1Cl,-14.4%
COc1ccc(S(=O)(=O)N(CCc2ccccc2)CC(=O)N2CCOCC2)cc1,-2.2%
CC(C)CNC(=O)/C=C/c1cccs1,?
CC(NC(=O)Cc1ccccc1)c1nc2ccccc2[nH]1 (stereo not drawn),-9.3%
COCCOC(=O)C1=C(C)NC(=O)NC1c1c(Cl)nc2ccccn2c1=O (stereo not drawn),-9.3%
CC(C)c1ccc(/C=C/C(=O)N2CCc3ccccc3C2)cc1,?
COc1cc(NS(=O)(=O)c2ccc(F)cc2)c(OC)cc1NC(=O)C1CC1,-11.0%
COC(=O)C1=C(C)NC(C)=C(C(=O)OCCSc2ccccc2)[C@@H]1C,?
Cc1cccn2c(=O)c(/C=C3\SC(=S)N(CC(C)C)C3=O)c(NCCCOC(C)C)nc12,-14.6%
Cc1nn(-c2ccccc2)c(C)c1/C=N/NC(=O)c1cc(-c2cccc3ccccc23)n[nH]1,-19.7%
c1c[nH]c(CN2CCOCC2)n1,-4.1%
COc1ccc2nc(SCC(=O)NC(C)C)[nH]c2c1,-8.8%
N=C(N)CCCOc1ccccc1-c1ccccc1,-3.7%
CCOc1ccc(S(=O)(=O)N(CC(=O)N/N=C/c2cccs2)c2ccc(C)cc2)cc1,-28.9%
CC(=O)C1=C(C)NC(SCC(=O)Nc2nccs2)=C(C#N)C1c1ccccc1Cl (stereo not drawn),-14.0%

Carrying on.
Compound,HPGD inh
CCCCOC(=O)CSC1=C(C#N)C(c2ccc3c(c2)OCO3)CC(=O)N1 (stereo not drawn),-22.0%
Cc1cc2ccccc2c(=O)n1CC(=O)NCC(=O)N(C)Cc1ccccc1,-17.3%
CCOc1ccc(S(=O)(=O)N(C)c2ccc(OCC(=O)OCc3c(C)noc3C)cc2)cc1,-20.1%
N#Cc1nc(-c2ccc(OCc3ccccc3)cc2)oc1NCc1ccco1,?
COc1ccc2c(c1)C(C)=CC(C)(C)N2C(=O)CNCc1ccc2c(c1)OCO2,-7.0%
COC(=O)Cn1c(=NC(=O)c2cc(-c3cccs3)nc3ccccc23)sc2cc(S(N)(=O)=O)ccc21,?
CCOC(=O)/C(C#N)=C/c1ccc(OCC(=O)Nc2cc(C)ccc2C)c(OC)c1,?
CN(C)CCOc1ccc2ccccc2c1,-2.8%
COc1ccccc1CNC(=O)Nc1cccs1,22.4µM*
CCOc1ccccc1OCC(O)CNC (stereo not drawn),-3.1%
COCc1[nH]nc2c1C(c1ccccc1Cl)C(C#N)=C(N)O2 (stereo not drawn),-10.0%
O=C(O)c1cc2ccccc2c(S(=O)(=O)O)c1O,-13.7%
O=C(NN1CCOCC1)c1cc(-c2cccs2)nc2ccccc12,?
CCOc1ccc(OCc2ccc(C(=O)OCc3ccccn3)o2)cc1,25.1µM*
COC(=O)c1nc(NC(=O)c2ccccc2)n[nH]1,?
CC(C)c1ccc(/C=C/C(=O)Nc2nc3ccc([N+](=O)[O-])cc3s2)cc1,-8.9%

Another view of part of the listing above:
O=C(O)c1cc2ccccc2c(S(=O)(=O)O)c1O
  HPGD inh: -13.7%
O=C(NN1CCOCC1)c1cc(-c2cccs2)nc2ccccc12
  HPGD inh: ?
CCOc1ccc(OCc2ccc(C(=O)OCc3ccccn3)o2)cc1
  HPGD inh: 25.1µM*
COC(=O)c1nc(NC(=O)c2ccccc2)n[nH]1
  HPGD inh: ?

(listing goes on)
Compound,HPGD inh
O=C1C2CC=CCC2C(=O)N1Cc1ccccc1Cl (stereo not drawn),-13.2%
CC(=O)Nc1nc2n(n1)C(c1ccc(Cl)cc1)C=C(C)N2 (stereo not drawn),?
CC(=O)Nc1c(C)cc(S(C)(=O)=O)cc1C,-0.4%
CCOc1ccccc1-c1cc(-c2ccc(OC)cc2)nc2c1c(=O)n(C)c(=O)n2C,-17.8%
CCCc1cc(=O)[nH]c(NCc2ccc(Cl)cc2)n1,-11.8%
CCN(CC)c1ccc(NC(=O)C2CCCN(S(=O)(=O)c3cccnc3)C2)c(C)c1 (stereo not drawn),-6.5%
COc1ccccc1OCCNC(=O)c1cc(SC)ccc1Cl,-2.4%
Clc1ccc2c(c1)CNc1c(ncnc1N1CCOCC1)O2,-22.6%
Fc1ccc(CN2CCSCC2)cc1Br,-14.2%
COc1ccc(C2=NOC(C(=O)Nc3ccc(C(C)=O)cc3)C2)cc1OC (stereo not drawn),?
Cc1ccc(C2C(C(=O)O)c3ccccc3C(=O)N2C)o1 (stereo not drawn),-9.4%
COc1cc2oc(=O)cc(-c3ccc(-c4ccc(CO)cc4)cc3)c2c(OC)c1OC,?
Clc1ccc(CNCCC2=CCCCC2)cc1,-5.8%
c1ccc(OCCn2cnc3ccccc32)cc1,-3.6%
Cc1cc(C)c2c(N)c(S(=O)c3ccc(C(C)(C)C)cc3)sc2n1 (stereo not drawn),-26.9%
Nc1nnc(COc2ccc(Br)cc2Br)s1,-29.7%
COc1cccc(C2C(C(=O)c3cccs3)=C(O)C(=O)N2CCN(C)C)c1OC (stereo not drawn),-11.6%
CCOc1cc(/C=N/NC(=O)CSc2nncn2C)ccc1OCc1ccccc1,-18.4%
CC(C)C(=O)Nc1ccc(C(=O)NNC(=O)c2cccs2)cc1,-13.5%
CCC(=O)Oc1oc(-c2ccccc2)nc1C=Nc1ccccc1OC,?
COc1ccc(OC)c2c(N)c(C#N)c(C(F)(F)C(F)(F)F)nc12,?
CCC(=O)N1CCN=C1SCc1ccccc1Cl,-11.4%
COC(=O)c1sccc1-n1cccc1C(=O)N1CCOCC1,-24.3%
Cn1cnc([N+](=O)[O-])c1Sc1nc(N)nc2c1ncn2[C@H]1C[C@H](O)[C@@H](CO)O1,-8.0%
CCc1sc(N(C(=O)Cc2ccccc2)c2ccccc2)nc1-c1ccccc1,-14.7%
O=S(=O)(CCSc1nc2ccccc2s1)c1nc2ccccc2s1,-18.5%
Cc1nn(CCc2n[nH]c(=S)n2C2CCCCC2)c(C)c1Br,25.1µM*
CC(C)(C)OC(=O)N1CCC[C@H]1C(=O)NCC1CCC(C(=O)O)CC1 (stereo partly drawn),-2.4%
COCCN(C(=O)C(C)C)c1nnc(-c2ccc(C)cc2)s1,?
O=S(=O)(c1cccs1)n1nnc2ccccc21,?
CN(C)c1ccc(/C=C/C(=O)c2ccc3c(c2)OCCO3)cc1[N+](=O)[O-],-9.7%
CCCNc1c(NC(C)=O)c(=O)oc2ccccc12,-9.3%
COC(=O)c1ccc(C(=O)Nc2ccc3nc(-c4cccnc4)[nH]c3c2)cc1,-8.6%
Cc1cccc(-c2nc(CSCC(=O)NCc3cccs3)c(C)o2)c1,-24.0%
O=c1cc(CN2CCN(S(=O)(=O)/C=C/c3ccccc3)CC2)c2ccc(O)cc2o1,?
O=C(Nc1c[nH]c(=O)[nH]c1=O)Oc1ccccc1,-7.4%
Cc1nc(CNS(=O)(=O)c2ccc3c(c2)CCCC3)cs1,-12.2%
COC(=O)c1ccc(NC(=O)CCN2CCN(Cc3ccccc3)CC2)cc1,1.6%
CCOC(=O)c1sc(NC(=O)CSc2nc3c(c(=O)n2-c2ccc(C)cc2)SCC3)c(C(=O)OCC)c1C,-29.0%
COc1ccc(C(=O)N(c2ccc(OC)cc2)S(=O)(=O)c2cccs2)cc1,-11.9%
c1ccc(-c2noc(-c3cccnc3)n2)nc1,-5.1%
N#CCCn1cc(C(=O)Nc2ccc([N+](=O)[O-])cc2)c(-c2cccs2)n1,-15.2%
COc1ccc(COC(=O)NNC(=O)c2ccccc2Cl)cc1,0.3%
CC(=O)[C@H](C(=N)C#N)C(=O)Nc1ccccc1,-10.6%
CCOC(=O)CNC(=O)CSc1nnnn1-c1cc(C)ccc1C,-8.4%
c1ccc(-c2csc3ncn4cnnc4c23)cc1,-26.2%
CCOC(=O)C1C(=O)NC(c2ccccc2)=NC1c1ccc(C(C)C)cc1 (stereo not drawn),-5.1%
CCOC(=O)N1CCC(NC(=O)c2cccnc2SC)CC1,-18.6%
Cc1ccc(-c2csc(C(C#N)=C3CCCC3)n2)cc1,-11.3%
CC(C)Cc1nc2sc3c(=O)[nH]cnc3c2c2c1CCC2,?
COc1ccc(/C=C/C(=O)Nc2cc(C(F)(F)F)ccc2Cl)cc1OC,?
COc1ccc(CNC(=O)C2CC=CCC2C(=O)O)cc1OC (stereo not drawn),-12.9%
CN(C)c1ccc(-c2noc(C3CCN(S(=O)(=O)c4cccc(C(=O)O)c4)CC3)n2)cc1,-23.4%
CCc1nc(C)cn1S(=O)(=O)c1cc(Br)ccc1OC,-7.4%
O=C(OCc1ccc([N+](=O)[O-])cc1)C1CCN(S(=O)(=O)c2ccccc2)CC1,-3.5%

Assay outcomes deposited in PubChem by National Center for Advancing Translational Sciences (NCATS).
